# Bioassay records (PubChem)
# DUX4 inh: inhibitors of DUX4-driven ZSCAN4 reporter expression, primary screen, 293T cells, Gaussia and Italica luciferase; 293T-iDUX4 ZSCAN4-Gaussia luciferase reporter, 24 h; stronger effect = lower value; activity change, negative = inhibition, % (test concentration not listed); 37,000 tested, 0.8% active; AID 1224904, 2016;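 active means -10% or lower and over 25 points stronger than a control reporter; inconclusive means -10% or lower with a smaller gap; inactive means above -10%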;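 further: 0% = median of neutral control wells and -100% = median of positive control wells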
# DUX4 inh difference: recorded beside DUX4 inh, whose call it bears; Gaussia minus Italica difference, %; measured here: selective DUX4 reporter inhibition;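 worked out from the two reporters; negative = selective loss of the DUX4 reporter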
# DUX4 inh control: also measured in DUX4 inh; calls as there; activity change, negative = inhibition, %; measured here: Italica tet-on control reporter;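 0 = neutral control and -100 = positive control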
# * hit, by the source's call; u = inconclusive; x = no result given. An excerpt; rates above refer to the full screens.
item | compound | DUX4 inh | DUX4 inh difference | DUX4 inh control
1 | C[C@@H]1CN([C@@H](C)CO)S(=O)(=O)c2ccc(-c3ccncc3)cc2O[C@@H]1CN(C)C(=O)Nc1ccc(F)cc1 | -3 | -7 | 3.9
2 | C/C=C/c1ccc([C@@H]2[C@@H](CO)N3C(=O)CN(Cc4ccc(C(=O)OC)cc4)C[C@H]23)cc1 | 3 | 0 | 3.4
3 | O=C(C1CC1)N1CC2(C1)[C@H](c1ccccc1)[C@@H](CO)N2S(=O)(=O)c1ccccc1 | 5 | 1 | 4.4
4 | COc1ccccc1-c1ccc([C@@H]2[C@@H](CO)N3CCCCN(C(=O)NC4CCCC4)C[C@H]23)cc1 | 15 | 16 | -1.3
5 | C[C@H](CO)N1C[C@H](C)[C@H](CN(C)C)Oc2ncc(C#Cc3ccc(F)cc3)cc2C1=O | 2 | 5 | -2.8
6 | CCCC(=O)N1CC2(C1)CN(C(C)=O)[C@H](CO)c1c2c2ccc(OC)cc2n1C | 14 | 8 | 6.1
7 | COC(=O)[C@@H]1[C@@H](CO)[C@@H]2Cn3c(ccc(-c4ccccc4OC)c3=O)[C@@H]2N1CC1CCCCC1 | u | x | x
8 | CCCC#Cc1ccc([C@H]2[C@@H](CO)N(C(=O)C3CC3)[C@H]2C#N)cc1 | -4 | -2 | -1.9
9 | C[C@H](CO)N1C[C@H](C)[C@H](CN(C)C(=O)NC2CCCCC2)Oc2cc(/C=C/c3ccccc3)ccc2S1(=O)=O | -1 | -1 | -0.1
10 | C[C@@H]1CN([C@H](C)CO)C(=O)c2cc(NC(=O)c3ccncc3)ccc2O[C@@H](C)CCCCO[C@H]1CN(C)C(=O)Nc1cccc2ccccc12 | -1 | -1 | -0.6
11 | COCC(=O)Nc1ccc2c(c1)C(=O)N(C)[C@@H]1CC[C@H](CC(=O)NCC3CC3)O[C@H]1CO2 | 1 | 0 | 0.3
12 | CN1c2ccc(-c3ccc(F)cc3)cc2[C@H]2[C@H](CCN2S(=O)(=O)c2ccc(F)cc2)[C@@H]1CO | u | x | x
13 | C[C@H](NC(=O)C[C@@H]1CC[C@H]2[C@@H](COC[C@@H](O)CN2C(=O)Nc2cc(Cl)cc(Cl)c2)O1)c1ccccc1 | 3 | 3 | -0.2
14 | O=C(Cc1ccncc1)N1CC[C@@H]2[C@H]1c1cc(-c3ccccc3F)ccc1N[C@@H]2CO | u | x | x
15 | COCC(=O)N1C[C@H](C)[C@H](OC)CN(C)C(=O)c2cc(NC(=O)c3cnccn3)ccc2OC[C@@H]1C | 0 | -6 | 5.2
16 | Cc1ccccc1-c1ccccc1[C@H]1[C@@H](CO)N(C(=O)c2ccc(F)cc2)[C@H]1C#N | u | x | x
17 | C/C=C/c1ccc([C@@H]2[C@@H](CN(CC)C(=O)CC)N(S(C)(=O)=O)[C@H]2CO)cc1 | -3 | -2 | -1.5
18 | Cc1noc(C)c1NC(=O)N(C)C[C@@H]1Oc2cc(C#CCN(C)C)ccc2S(=O)(=O)N([C@H](C)CO)C[C@@H]1C | 2 | -3 | 4.8
19 | O=C(NCC[C@@H]1CC[C@H](NC(=O)c2ccccc2F)[C@H](CO)O1)c1cnccn1 | -1 | -1 | -0.7
20 | CO[C@H]1CC[C@H]2CCN(C)C(=O)[C@@H](C)[C@H](OC)CN(C)C(=O)c3cc(C#N)ccc3OC[C@H]1O2 | -1 | 0 | -0.1
21 | COCC(=O)N1CCCCN2[C@H](CO)[C@H](c3ccc(-c4ccc(F)cc4)cc3)[C@@H]2C1 | -8 | -1 | -6.4
22 | Cc1ccccc1S(=O)(=O)N(C)C[C@@H]1OCc2ccccc2-c2c(n(C)c3ccccc23)C(=O)N([C@@H](C)CO)C[C@@H]1C | u | x | x
23 | O=C(C[C@H]1C[C@@H]2c3cc(NC(=O)Nc4ccccc4F)ccc3O[C@@H]2[C@@H](CO)O1)NC1CCCCC1 | u | x | x
24 | O=C(C[C@H]1CC[C@H]2[C@@H](COC[C@@H](O)CN2C(=O)Cc2ccccc2)O1)NC1Cc2ccccc2C1 | 1 | 0 | 1.3
25 | CO[C@H]1CN(C)C(=O)c2ccc(NC(=O)c3ccno3)cc2OC[C@H](C)N(S(C)(=O)=O)C[C@@H]1C | -3 | -5 | 1.6
26 | O=C(C[C@H]1CC[C@H]2[C@@H](COC[C@@H](O)CN2S(=O)(=O)c2ccc(Oc3ccccc3)cc2)O1)Nc1ccccc1 | u | x | x
27 | C[C@H](CO)N1C[C@H](C)[C@@H](CN(C)S(=O)(=O)c2ccc(F)cc2)OCc2ccccc2-c2c(n(C)c3ccccc23)C1=O | -3 | 3 | -6.3
28 | O=C(C[C@H]1CC[C@H]2[C@@H](COC[C@H](O)CN2C(=O)Nc2ccc(C(F)(F)F)cc2)O1)NC1Cc2ccccc2C1 | u | x | x
29 | C[C@@H]1CN([C@@H](C)CO)C(=O)c2cc(NC(=O)Nc3ccc(C(F)(F)F)cc3)ccc2O[C@@H](C)CCCCO[C@@H]1CN(C)C(=O)Nc1ccc2c(c1)OCO2 | -4 | -5 | 1.0
30 | O=C([C@@H]1[C@@H](CO)[C@@H]2Cn3c(cccc3=O)[C@H]1N2C(=O)c1ccccn1)N1CCCCC1 | 6 | 4 | 2.6
31 | CN(C)CC(=O)Nc1ccc2c(c1)[C@H]1C[C@H](CC(=O)NCCN3CCCCC3)O[C@@H](CO)[C@H]1O2 | 7 | 4 | 2.2
32 | C[C@@H]1CN([C@@H](C)CO)C(=O)CCCn2cc(nn2)CO[C@H]1CN(C)C(=O)Nc1cccc(C(F)(F)F)c1 | 2 | 2 | -0.3
33 | O=C(N[C@H]1CC[C@H](CC(=O)N2CCc3ccccc3C2)O[C@H]1CO)C1CCOCC1 | 4 | 3 | 1.0
34 | O=C(C[C@@H]1CC[C@@H]2[C@H](COC[C@H](O)CN2C(=O)C2CC2)O1)NCc1ccccc1Cl | 8 | 9 | -1.5
35 | CC[C@H]1C/C=C\C[C@@H](c2ccc(OC)cc2OC)NC(=O)[C@H](C)CC(=O)N1 | -3 | 0 | -2.4
36 | O=C(C[C@H]1C[C@H]2c3cc(NC(=O)Nc4ccccc4F)ccc3O[C@H]2[C@H](CO)O1)NCc1cc(F)ccc1F | -3 | -1 | -1.5

37) CN(C)C(=O)c1ccc(-c2ccc([C@H]3[C@H](CO)N4CCCCN(C(=O)C5CC5)C[C@@H]34)cc2)cc1
38) C[C@@H]1CN([C@H](C)CO)C(=O)c2cc(-c3cccc(C(=O)N(C)C)c3)cnc2O[C@@H]1CN(C)C(=O)Cc1ccccn1
39) CNC[C@@H]1OCCCC[C@H](C)Oc2ccc(NC(=O)Nc3ccc(OC)cc3)cc2C(=O)N([C@H](C)CO)C[C@H]1C
40) CN(C)CC(=O)Nc1ccc2c(c1)[C@H]1C[C@@H](CC(=O)NCc3ccc(-c4ccccc4)cc3)O[C@@H](CO)[C@H]1O2
41) CO[C@H]1CN(C)C(=O)c2ccc(NC(=O)C3CC3)cc2OC[C@@H](C)N(CCc2ccccc2)C[C@@H]1C

Compound | 37 | 38 | 39 | 40 | 41
DUX4 inh | 32 | 1 | -3 | u | u
DUX4 inh difference | 16 | -3 | -1 | x | x
DUX4 inh control | 16 | 4.1 | -1.7 | x | x

# In another format: entries from further up
entry	DUX4 inh	DUX4 inh difference	DUX4 inh control	Compound
41	u	x	x	CO[C@H]1CN(C)C(=O)c2ccc(NC(=O)C3CC3)cc2OC[C@@H](C)N(CCc2ccccc2)C[C@@H]1C
40	u	x	x	CN(C)CC(=O)Nc1ccc2c(c1)[C@H]1C[C@@H](CC(=O)NCc3ccc(-c4ccccc4)cc3)O[C@@H](CO)[C@H]1O2

# Fetched by structure from the list above (three):
37) CN(C)C(=O)c1ccc(-c2ccc([C@H]3[C@H](CO)N4CCCCN(C(=O)C5CC5)C[C@@H]34)cc2)cc1
40) CN(C)CC(=O)Nc1ccc2c(c1)[C@H]1C[C@@H](CC(=O)NCc3ccc(-c4ccccc4)cc3)O[C@@H](CO)[C@H]1O2
41) CO[C@H]1CN(C)C(=O)c2ccc(NC(=O)C3CC3)cc2OC[C@@H](C)N(CCc2ccccc2)C[C@@H]1C

Compound | 37 | 40 | 41
DUX4 inh | 32 | u | u
DUX4 inh difference | 16 | x | x
DUX4 inh control | 16 | x | x

# Additional structures
42) C[C@@H]1CN([C@H](C)CO)S(=O)(=O)c2ccc(/C=C/c3ccccc3)cc2O[C@@H]1CN(C)Cc1cccnc1
43) C=C(C)C[C@@H]1CCn2cc(nn2)COCCNC1=O
44) COc1ccccc1NC(=O)N1CC(=O)N2[C@H](CO)[C@@H](c3ccc(-c4cccc(C)c4)cc3)[C@@H]2C1
45) CCN1[C@@H]2c3ccc(C4=CCCC4)c(=O)n3C[C@@H]2[C@@H](CO)[C@@H]1C(=O)NC1Cc2ccccc2C1
46) C[C@@H]1CN([C@@H](C)CO)C(=O)c2cc(/C=C/c3ccccc3)cnc2O[C@@H]1CN(C)Cc1cccc(C(=O)O)c1

Compound | 42 | 43 | 44 | 45 | 46
DUX4 inh | -4 | 10 | u | 3 | 5
DUX4 inh difference | -2 | 3 | x | 8 | 6
DUX4 inh control | -1.4 | 7.0 | x | -5.0 | -0.4

# Some values from the results shown:
# `Cc1noc(C)c1NC(=O)N(C)C[C@@H]1Oc2cc(C#CCN(C)C)ccc2S(=O)(=O)N([C@H](C)CO)C[C@@H]1C` in DUX4 inh control is entered as 4.8
# `O=C([C@@H]1[C@@H](CO)[C@@H]2Cn3c(cccc3=O)[C@H]1N2C(=O)c1ccccn1)N1CCCCC1` in DUX4 inh is entered as 6
# `C[C@@H]1CN([C@@H](C)CO)C(=O)CCCn2cc(nn2)CO[C@H]1CN(C)C(=O)Nc1cccc(C(F)(F)F)c1` in DUX4 inh control is entered as -0.3

# Next part:
47) CCc1csc(N2[C@@H](C#N)[C@H](c3ccc(-c4cccc(F)c4)cc3)[C@@H]2CO)n1
48) CC(=O)N1[C@H](CO)[C@@H](c2ccc(C3=CCCCC3)cc2)[C@@H]1CNC(=O)CN(C)C
49) CO[C@@H]1CC[C@@H]2CCN(C)C(=O)CC3(CCCCC3)CN(C)C(=O)c3cccc(C#N)c3OC[C@@H]1O2
50) COc1cccc(S(=O)(=O)N[C@@H]2CC[C@H](CC(=O)NC3Cc4ccccc4C3)O[C@@H]2CO)c1
51) CC(C)NC(=O)Nc1ccc2c(c1)CC(=O)N([C@@H](C)CO)C[C@@H](C)[C@H](CN(C)Cc1ccncc1)O2

Compound | 47 | 48 | 49 | 50 | 51
DUX4 inh | 4 | -1 | 4 | 4 | -1
DUX4 inh difference | 5 | -2 | 2 | 7 | 0
DUX4 inh control | -0.6 | 1.8 | 2.5 | -3.4 | -1.1

# By substructure: the compounds so far with a Cl atom
13) C[C@H](NC(=O)C[C@@H]1CC[C@H]2[C@@H](COC[C@@H](O)CN2C(=O)Nc2cc(Cl)cc(Cl)c2)O1)c1ccccc1
34) O=C(C[C@@H]1CC[C@@H]2[C@H](COC[C@H](O)CN2C(=O)C2CC2)O1)NCc1ccccc1Cl

Compound | 13 | 34
DUX4 inh | 3 | 8
DUX4 inh difference | 3 | 9
DUX4 inh control | -0.2 | -1.5

# (continued)
52) CN(C)CC#Cc1ccc([C@H]2[C@H]3CN(C(=O)Cc4cccnc4)CC(=O)N3[C@H]2CO)cc1
53) C/C=C/c1ccc([C@@H]2[C@@H](CNC(=O)CC)N(C(=O)COC)[C@H]2CO)cc1
54) COc1ccc2c3c([nH]c2c1)[C@@H](CO)N(C)CC31CN(S(C)(=O)=O)C1
55) O=C(Nc1ccc2c(c1)[C@@H]1C[C@@H](CC(=O)N3CCc4ccccc4C3)O[C@H](CO)[C@@H]1O2)Nc1ccccc1F
56) O=C(C[C@H]1C[C@@H]2c3cc(NS(=O)(=O)c4ccc(F)cc4)ccc3O[C@@H]2[C@H](CO)O1)NCc1cccc(F)c1
57) CCCC#Cc1ccc2c(c1)O[C@@H](CN(C)Cc1ccccn1)[C@@H](C)CN([C@H](C)CO)S2(=O)=O
58) CN1C(=O)c2cc(NS(=O)(=O)c3cccc(F)c3)ccc2OC[C@H]2O[C@H](CC(=O)N3CCc4ccccc4C3)CC[C@@H]21
59) COCC(=O)N1CC(=O)N2[C@@H](CO)[C@@H](c3ccc(C#CC4CC4)cc3)[C@@H]2C1

Compound | 52 | 53 | 54 | 55 | 56 | 57 | 58 | 59
DUX4 inh | 23 | -1 | 15 | u | 0 | -3 | 5 | 6
DUX4 inh difference | 9 | -3 | 11 | x | 3 | -3 | 6 | -4
DUX4 inh control | 14 | 1.6 | 4.3 | x | -3.2 | -0.2 | -1.1 | 10.0
